MT1-MMP act inh: MT1-MMP (human) activation inhibition; P50281; GFP/RFP ratio change, % at 20 µM; HT1080 RFP-PRO-GFP cells, GFP/RFP ratio fluorescence, overnight; percent of plate control window, DMSO zero; hit rate 0.061% among 360,000;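 active means GFP/RFP ratio change of at least 30% with cell ATP level not reduced by more than half and red fluorescence within 50% of control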; further: strong numbers were not always called active
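Test system: HT1080 RFP-PRO-GFP cells; Benchmarks: DMSO and RFP-L50D-GFP cell wells; Timing: cells overnight before dosing, compound overnight, 37 °C, 5% CO2; Compound: one 20 µM compound dose with 1% DMSO; Read-out: GFP/RFP fluorescence ratio.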
PABP polyA inh: PABP-poly(A) binding inhibition. P11940. inhibition, % at 35 µM. AID 2014. PABP-poly(A) RNA binding, fluorescence polarization. hit rate 1% among 290,000;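 active means 50% or more with normal probe brightness, or confirmed in later tests; inconclusive means above 50% with abnormal brightness, or retests that disagree; inactive means below 50% or failed in later tests; about a fifth of its hits are not listed in these tables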;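 further: calls also rest on retests at 20 µM and on dose response follow-up; controls were probe without protein and protein plus probe with vehicle; some compounds called inactive have numbers as strong as hits; many hits fall short of the cut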
CSC inhib: cancer stem cell inhibition; cancer stem cell-like cells viability, luminescence; inhibition, % at 7.5 µM; hit rate 1.1% among 300,000; AID 2717;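 active means mean at 75% or more and at least half the replicates too; inconclusive means mean and replicates disagree; tested in HMLE shEcad cells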;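 further: 0% = median of negative and 100% = median of positive control wells; the first replicate is given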
Rce1 inhib: yeast Ras-converting enzyme inhibition. yeast membranes, quenched prenylated peptide cleavage fluorescence. AID 2563. hit rate 0.27% among 290,000. calls only. Q03530;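 active means fall in fluorescence gain of 50% or more versus controls, with final raw signal at or below 3038400; inconclusive means same 50% fall but final raw signal above 3038400; inactive means fall in fluorescence gain under 50%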;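 further: plate controls were neutral control wells for no effect and wells lacking membranes for full effect; tested at 10 µM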
Target sequence (Q03530 whole entry, looked up): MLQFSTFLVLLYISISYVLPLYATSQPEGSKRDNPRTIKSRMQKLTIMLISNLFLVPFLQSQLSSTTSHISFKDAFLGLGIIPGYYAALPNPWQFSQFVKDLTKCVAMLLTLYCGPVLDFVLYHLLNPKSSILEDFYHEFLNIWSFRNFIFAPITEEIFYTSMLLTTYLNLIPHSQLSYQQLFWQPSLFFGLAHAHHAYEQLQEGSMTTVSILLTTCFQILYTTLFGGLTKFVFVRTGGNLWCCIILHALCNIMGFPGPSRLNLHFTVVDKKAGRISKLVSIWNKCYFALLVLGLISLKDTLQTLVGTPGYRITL
UUG fidelity: alters start codon recognition fidelity in yeast | S. cerevisiae UUG-firefly luciferase reporter, luminescence/redox ratio | activity score, % at 18.7 µM | hit rate 0.13% among 350,000 | AID 602363;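 active means replicate mean at a twofold rise or more, about +100% in these data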;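 further: firefly luciferase made from a UUG start codon reports start codon fidelity; reporter light over untreated wells divided by growth signal over untreated wells; some hits fall short of that in this replicate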
eIF4H inh: inhibitors of RNA binding by human eIF4H; Q15056; eIF4H fluorescence polarization binding assay; inhibition, % at 35 µM; hit rate 0.94% among 290,000; AID 2012;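 active means 50% or more with normal probe brightness, or confirmed in later tests; inconclusive means above 50% with abnormal brightness, or retests that disagree; inactive means below 50% or failed in later tests; about a fifth of its hits are not listed in these tables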;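 further: calls also rest on retests at 20 µM and on dose response follow-up; 0% = protein and probe with vehicle and 100% = probe without protein; strong numbers were not always called active; many hits fall short of the cut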
Env fusion inh: blocks HIV Env-driven cell-cell fusion; HeLa-JRFL Env/CEM21 cell fusion, luciferase; inhibition, % at 12.3 µM; hit rate 1.1% among 360,000; AID 651610;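 active means mean replicate inhibition score of at least 50 and every replicate individually at or above 50; inconclusive means only one of the two criteria met; inactive means mean below 50 and not all replicates reaching 50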;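 further: 0% = plate neutral controls and 100% = maraviroc near 300 nM; one replicate is shown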
MT1-MMP act inh RFP: also measured in MT1-MMP act inh; calls as there; RFP signal change, %; measured here: RFP expression control read;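 0 = vehicle wells; hits needed this value within 50% of zero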
Starred values were filed as active, the others as inactive; i = inactive; ? = inconclusive; · = no result given; & = joins results of further samples; [ ] = dose if it differs, or a comment. The list is partial; rates above refer to the full screens.

SMILES | MT1-MMP act inh | MT1-MMP act inh RFP | PABP polyA inh | CSC inhib | Rce1 inhib | UUG fidelity | eIF4H inh | Env fusion inh
CSCCC(NC(N)=O)C(=O)Nc1ccc(F)c(Cl)c1 (stereo not given) | 1.9 | 3.0 | -2.7 | -11.0 | i | · | 3.0 | 16.5
Cc1cc(C)c(OCCOCCN2CCCC2)c(C)c1 | 1.8 | 0.7 | · | 6.9 | i | · | · | 2.1
COc1ccc(-c2oc(NC(=O)CSc3nncn3C)c(C#N)c2-c2ccc(OC)cc2)cc1 | -4.4 | -9.6 | 3.6 | -0.3 | i | -18.6 | -9.1 | ·
Cc1ccccc1NS(=O)(=O)c1ccc(Cl)cc1 | 3.9 | 1.4 | -6.2 | -10.9 | i | · | -2.3 | -9.5
CC(C)(C)NC(=O)CN(C(=O)C(=O)Nc1ccc2c(c1)OCCO2)C1CC1 | -2.8 | 3.9 | 4.8 | -2.0 | i | · | -1.8 | -62.0
Cc1ccc2c(c1)CCCN2CC(=O)Nc1cc(S(=O)(=O)N2CCCC2)ccc1Cl | -16.2 | -5.8 | · | 9.8 | · | 2.3 | · | ·
CC(=O)NCCNC(=O)CCNC(=O)c1ccc(Cl)cc1 | -6.1 | -1.0 | -4.7 | -1.2 | i | -13.9 | -11.1 | ·
CCN(CC)CCCNC(=O)CCC(=O)Nc1ccc2nc(N3CCC(C)CC3)cc(C)c2c1 | 2.3 | 1.7 | -12.6 | 55.3 | ? | 1.5 | 4.5 | -9.6
Cc1ccc(NC(=O)CSc2nnc(-c3ccncc3)n2C)cc1C | 1.6 | 1.4 | 0.7 | -15.6 | i | -9.5 | -7.7 | -19.7
COc1ccccc1OCCNC(=O)C1CC(=O)N(Cc2ccc(C)cc2)C1 (stereo not given) | 6.0 | 1.8 | · | 4.2 | i | -7.5 | · | -28.9
Cc1ccc(S(=O)(=O)CCC(=O)Nc2nnc(-c3ccco3)o2)cc1 | -0.6 | 3.5 | · | -11.2 | i | -26.4 | · | ·
Cc1nnc(SCc2cccc(Oc3ccccc3)c2)n1N | -2.8 | -0.8 | 2.9 | -5.8 | i | · | -1.0 | 26.0
CN(C)S(=O)(=O)c1ccc(C(=O)Nc2cccnc2)cc1 | 12.9 | 10.0 | -2.2 | -9.2 | i | -17.0 | 4.1 | ·
O=C1c2ccccc2C2N1CCCN2C(=O)c1sc2ccccc2c1Cl (stereo not given) | 4.0 | -18.9 | · | · | · | -7.0 | · | 2.9
NC(=S)NC(c1ccccc1)c1ccncc1 (stereo not given) | 1.3 | 2.9 | · | -4.4 | i | · | · | 1.2
NNc1ccc(Cl)nn1 | -2.1 | 0.0 | 1.8 | -5.9 | i | · | 1.2 | 10.2
CC(C)(CNC(=O)CNC(=O)C1CCCCC1)N1CCOCC1 | -1.3 | 3.4 | · | 3.8 | · | -11.5 | · | ·
O=C(Nc1nnc(-c2cccc(F)c2)s1)Nc1ccccc1F | -1.0 | 2.4 | 4.6 | -8.2 | i | · | -9.5 | -17.2
Cc1ccc(C(=O)NNC(=O)COc2ccc(Cl)cc2C)o1 | -1.9 | 0.1 | · | -10.0 | · | 7.2 | · | -21.5
Cc1cc(C)cc(C(=O)Oc2cc(C)[nH]c(=O)c2[N+](=O)[O-])c1 | -1.3 | 0.3 | 1.2 | -6.7 | i | -9.9 | -2.0 | -6.4
CCOC(=O)N1CCC(NC(=O)C2CCCCN2S(=O)(=O)c2ccc(F)cc2)CC1 (stereo not given) | 0.3 | 3.4 | 6.3 | -0.6 | i | -5.8 | -2.2 | 7.3
CC(C)CN(C(=O)CCC(=O)OC(C)C(=O)Nc1cccc(C#N)c1)c1c(N)n(CC(C)C)c(=O)[nH]c1=O (stereo not given) | -3.7 | 1.0 | · | -3.6 | i | -12.2 | · | ·
C/C(=N\NC(=O)c1c(Br)c(C)nn1C)c1ccc(NC(=O)c2ccoc2C)cc1 | 3.7 | 3.3 | -7.9 | 23.9 | i | · | -10.5 | -17.4
Nn1c(Cc2cccc3ccccc23)nnc1SCC(=O)NC1CCS(=O)(=O)C1 (stereo not given) | -2.2 | -3.7 | 7.0 | 5.8 | i | -18.8 | 12.9 | -75.3
N/C(=N\O)c1ccc(Oc2ccccc2Cl)c([N+](=O)[O-])c1 | 4.4 | 0.0 | 12.6 | -6.3 | i | · | 2.3 | -10.4
COCCN(CCOC)C(=O)C1CCCN(S(=O)(=O)c2ccc(NC(=O)OC)cc2)C1 (stereo not given) | -4.3 | -3.7 | -0.9 | -8.9 | i | · | 4.4 | 0.2
CCCOc1ccc(C(=O)CCC(=O)Nc2ccc(N3CCN(C)CC3)cc2)cc1 | -0.6 | 1.9 | · | 63.9 | · | 5.3 | · | ·
CCOC(=O)Cc1c(C)nc2cc(-c3ccc(C(C)(C)C)cc3)[nH]n2c1=O | -5.3 | 2.4 | -11.1 | 22.4 | i | -1.1 | -8.9 | -20.5
Brc1ccc(OCCOCCN2CCOCC2)cc1 | 4.6 | 1.1 | 4.2 | -5.5 | i | -11.2 | 1.0 | ·
COC(=O)COc1cccc2c(=O)n(CC(=O)N3CCCCC3)ccc12 | 3.8 | 5.1 | -7.5 | -7.9 | i | · | -0.9 | -3.1
COc1cc(OC)c(C(=O)Nc2cc(S(=O)(=O)N3CCOCC3)ccc2N2CCN(C)CC2)cc1OC | -2.3 | -0.5 | · | · | · | -6.0 | · | -1.5
Cc1ccc(S(=O)(=O)CCSc2n[nH]c(=O)n2-c2ccccc2)cc1 | 2.8 | -3.9 | -1.1 | 8.3 | i | 14.6 | 1.6 | 9.6
O=C(O)Cc1ccc(NC(=S)Nc2cccc(Cl)c2Cl)cc1 | 1.2 | -2.3 | 1.5 | -7.0 | i | · | 0.8 | ·
Cc1c(NC(=O)/C=C/C(=O)O)cccc1[N+](=O)[O-] | 2.8 | 5.5 | 8.7 | -9.4 | i | -25.8 | -7.7 | ·
COc1cccc(NC(=O)c2sc3nc4n(c(=O)c3c2C)CCC4)c1 | 3.9 | 4.0 | · | 9.3 | i | -0.6 | · | -42.0
CS(=O)(=O)N(CC(=O)N1CCCCC1)Cc1ccccc1 | -3.6 | 1.4 | 12.3 | -7.9 | · | -19.5 | 4.0 | 14.8
COc1nc(-c2ccccc2Cl)ccc1C#N | 1.0 | 3.9 | 3.1 | 12.9 | i | -16.5 | -4.1 | 56.1*
CCOC(=O)COc1nc(C)c(Br)c(OC)n1 | -4.3 | 1.1 | -12.3 | -3.6 | i | -35.4 | -2.3 | ·
Cc1cc2cc(CN(Cc3ccc4c(c3)OCO4)C(=O)c3ccco3)c(=O)[nH]c2cc1C | 0.0 | -3.5 | 11.2 | -3.7 | i | 0.8 | 4.3 | ·
CCN(CC)CCC(c1cc(OC)c(OC)c(OC)c1)c1c(OC)cc(OC)c2c(-c3ccccc3)cc(=O)oc12 (stereo not given) | 0.8 | -3.6 | -15.1 | 15.3 | i | 3.3 | 0.1 | ·
COc1ccc(NC(=O)Nc2ccc(C(=O)N3CCOCC3)cc2)cc1OC | 3.4 | 4.6 | 1.0 | -5.8 | i | -2.6 | -7.7 | 0.5
CN(N)c1ccc2c(C(F)(F)F)cc(C(F)(F)F)nc2n1 | -0.1 | -1.8 | 13.6 | 5.4 | i | · | -4.1 | -3.9
CCOc1cc2[nH]c(=S)n(Cc3ccc(C(=O)N4CCN(C)CC4)cc3)c(=O)c2cc1OCC | 1.4 | -1.4 | -0.5 | 20.2 | i | -16.4 | -18.2 | -7.3
CCCNc1nc(C)cc(-c2cc(-c3ccc(Cl)cc3)on2)n1 | 0.5 | 1.4 | -9.2 | -17.7 | i | -5.9 | -0.9 | -6.0
COc1ccc(/C=N/NC(=O)c2ccoc2C)cc1CN1CCN(c2ccc(F)cc2)CC1 | 4.1 | -0.7 | 1.8 | · | i | 10.5 | -2.2 | -3.7
COc1cc2c(cc1OC)-c1nnnn1C(C)(C)C2 | 4.3 | -1.5 | -7.4 | -7.9 | i | -2.4 | -1.0 | -89.0
COc1ccc(S(=O)(=O)Nc2ccc3c(c2)C(=O)N([C@@H](C)CO)C[C@H](C)[C@H](CN(C)S(=O)(=O)c2ccc(F)cc2)O3)cc1 | -2.9 | -1.3 | · | · | · | 7.0&-13.3 | · | 10.3[16.7 µM]
CCCN(CCC)c1nc(N)c(C#N)c(CC#N)c1C#N | -9.7 | -0.7 | 33.2 | -3.1 | i | · | 35.5 | ·
COc1ccc(Cl)cc1S(=O)(=O)N1CCN=C1c1ccccc1 | 1.0 | 0.6 | 9.6 | -15.5 | i | 17.5 | -5.1 | -34.8
COC(=O)c1sccc1N/N=C/c1cccc(Oc2ccccc2)c1 | -1.9 | 0.0 | -1.4 | -3.9 | i | -36.3 | 2.0 | ·
CSc1nc2n(n1)C(c1cccc(F)c1)C(C(=O)Nc1ccc(C)cc1C)=C(C)N2 (stereo not given) | 4.1 | 2.3 | -0.1 | -10.0 | i | -5.8 | -2.7 | -40.2
CC1(C)Cc2cccc(OCC(=O)N3CCN(S(=O)(=O)c4ccccc4)CC3)c2O1 | 3.1 | 8.5 | 1.6 | · | i | -4.8 | -11.2 | 10.2
C=C1CCN([C@@H](Cc2ccccc2)C(=O)NCc2ccc(Cl)c(Cl)c2)S(=O)(=O)c2ccccc21 | -15.1 | -9.5 | · | 19.1 | i | -2.8 | · | 35.0
N#CC1=C(N)NC(SCC(=O)c2ccc(Cl)cc2)=C(C#N)C12CCCC2 | -12.3 | -2.7 | 12.0 | 28.6 | i | · | 4.1 | ·
O=C1NN(CCO)C(=S)Nc2ccccc21 | 1.4 | 2.5 | · | · | · | -8.1 | · | 1.3
Cc1ccc2nc(SCC(=O)NC3CCCC3)nc(=O)n2c1 | -1.7 | -0.2 | · | -10.0 | i | -5.3 | · | 6.9
CCOc1ccc(C2c3c(oc4ccccc4c3=O)C(=O)N2CCCN2CCOCC2)cc1 (stereo not given) | 3.8 | 3.7 | -1.0 | -7.8 | i | -6.8 | -8.2 | ·
CCOc1ccc(/C(C)=N/NC(=O)c2nnn(-c3nonc3N)c2-c2cccs2)cc1 | 7.7 | 2.0 | 1.8 | 10.1 | i | -18.6 | -17.4 | 6.4
CCN(C[C@H]1N[C@@](Cc2ccccc2)(C(=O)OC)[C@H]2C(=O)N(Cc3ccccc3)C(=O)[C@@H]12)S(=O)(=O)c1ccccc1 | -3.6 | -4.5 | · | · | · | -4.9 | · | 27.0
CN(C)CCNc1nc2sc3c(c2c(=O)n1Cc1ccccc1)CCCCC3 | -1.1 | 1.1 | 15.9 | · | i | -13.6 | -12.5 | -0.1
(list continues)
SMILES | MT1-MMP act inh | MT1-MMP act inh RFP | PABP polyA inh | CSC inhib | Rce1 inhib | UUG fidelity | eIF4H inh | Env fusion inh
Cc1ccc(S(=O)(=O)Cc2ccc(C(=O)N3CCN(c4cccc(C)c4C)CC3)o2)cc1 | 2.0 | -12.2 | -2.0 | 58.9 | i | -10.5 | -0.6 | 39.8
COCCN1C(=O)C(=O)/C(=C(/O)c2ccc(OC(C)C)cc2)C1c1cccnc1 (stereo not given) | 2.3 | 0.8 | 0.4 | -5.1 | i | -19.0 | -7.4 | -17.8
S=C(Nc1ccccc1)Nc1ccccc1Br | 0.8 | 1.8 | -4.5 | -14.8 | i | -16.0 | 2.1 | 0.4
Cc1c(C(=O)OCC(=O)Nc2ccc(S(N)(=O)=O)cc2)oc2c1ccc1ccccc12 | -1.4 | -4.4 | 1.6 | · | i | · | -5.5 | -79.2
COc1cccc(NC(=S)NNC(=O)CCn2cc([N+](=O)[O-])cn2)c1 | 1.9 | -0.8 | -6.8 | 2.4 | i | · | 6.6 | 0.4
